Hsc70 ATP site = Hsc70 inhibitors, probe displacement, primary screen, biochemical, fluorescence polarization (AID 568). Hsc70 fluorescence polarization, probe displacement; higher % means a stronger effect; strong numbers were not always called active. displacement, % at 20 µM; hits with a dose series show IC50 in µM. 83,000 tested, under 10 active;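 active = displacement above 50% without optical interference and an IC50 on retest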;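 note: ATPase domain with a fluorescein-tagged ATP probe; 0% = vehicle and 100% = excess ADP; read after one hour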
WNV NS2B-NS3 inh = inhibitors of West Nile virus NS2B-NS3 protease | P06935 | AID 577 | WNV NS2B-NS3 protease, fluorogenic substrate Ex360/Em465; stronger effect = lower value | 65,000 tested, 0.18% active | z-score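 (tested at a level between 10 and 100 µM)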;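 active = z-score at -3 or under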;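 note: score is relative to mean and spread of the compound wells of a plate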
Target sequence (P06935 1371-1501 limits assumed): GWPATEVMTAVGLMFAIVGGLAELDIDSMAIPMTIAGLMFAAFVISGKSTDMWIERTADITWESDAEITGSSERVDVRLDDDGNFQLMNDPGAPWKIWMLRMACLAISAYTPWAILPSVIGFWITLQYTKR
Target sequence (P06935 1502-1679 limits assumed): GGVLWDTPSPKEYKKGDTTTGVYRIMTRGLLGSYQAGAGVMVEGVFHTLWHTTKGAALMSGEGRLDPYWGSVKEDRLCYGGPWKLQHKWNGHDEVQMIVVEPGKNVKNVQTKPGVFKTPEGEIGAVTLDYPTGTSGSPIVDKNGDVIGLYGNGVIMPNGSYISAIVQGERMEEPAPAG
MT1-MMP promoter = MT1-MMP gene expression reporter suppression – cell-based, luciferase reporter, luminescence (AID 618); 87,000 tested, 0.62% active; MT1-MMP promoter luciferase reporter cells, luminescence; calls from a first round at 10 µM; hits with a dose series show EC50 in µM;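 active = over half of the reporter light lost at 10 µM or EC50 under 50 µM; inactive = the rest and hits that failed the dose series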;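 note: actives suppress MT1-MMP promoter-driven transcription so potencies describe inhibitors; HT1080 fibrosarcoma cells; overnight exposure; toxic or luciferase-blocking compounds were not removed from the actives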
Numbers without * were called inactive.

The opening 2 records (preview)
Results for Cc1ccc2cc(C(c3nnnn3C3CCCC3)N3CCN(c4ccccc4)CC3)c(=O)[nH]c2c1 (stereo not given) ?
Hsc70 ATP site: 1.2%; WNV NS2B-NS3 inh: -0.54; MT1-MMP promoter: inactive

What do the screens show for `COc1ccc(/C=C(/C#N)c2cccnc2)cc1OC`?
Hsc70 ATP site: 4.9%; WNV NS2B-NS3 inh: -2.3; MT1-MMP promoter: inactive

All compounds of this part (from the top)
Results for Cc1ccc2cc(C(c3nnnn3C3CCCC3)N3CCN(c4ccccc4)CC3)c(=O)[nH]c2c1 (stereo not given) ?
Hsc70 ATP site: 1.2%; WNV NS2B-NS3 inh: -0.54; MT1-MMP promoter: inactive

What do the screens show for `COc1ccc(/C=C(/C#N)c2cccnc2)cc1OC`?
Hsc70 ATP site: 4.9%; WNV NS2B-NS3 inh: -2.3; MT1-MMP promoter: inactive

Results for Cc1ccc(C(=O)OCC(=O)Nc2ncc(Cl)cc2Cl)cc1NC(=O)c1ccco1 ?
Hsc70 ATP site: 0.5%; MT1-MMP promoter: inactive

Results for C=CCNC(=O)C1CCN(S(=O)(=O)c2ccc(Br)cc2)CC1 ?
Hsc70 ATP site: 4.1%; WNV NS2B-NS3 inh: 1.8; MT1-MMP promoter: inactive

How did CCn1c(COc2ccccc2)nc2ccccc21 do in these assays?
Hsc70 ATP site: 0.4%; MT1-MMP promoter: inactive

Results for COc1ccccc1N1CCN(C(c2ccccn2)c2nnnn2C2CCCCC2)CC1 (stereo not given) ?
Hsc70 ATP site: -0.3%; MT1-MMP promoter: inactive

What do the screens show for `Cn1cc(Cl)c(C(=O)NC2CCCCCC2)n1`?
Hsc70 ATP site: 1.8%; WNV NS2B-NS3 inh: -1.3; MT1-MMP promoter: inactive

How did Cc1cc(C)c2nc(SCCC#N)nc(C)c2c1 do in these assays?
Hsc70 ATP site: -0.6%; WNV NS2B-NS3 inh: 1.1; MT1-MMP promoter: inactive

Results for NC(=O)/C(=N\OC(=O)c1ccco1)c1nc(-c2ccc(Br)cc2)cs1 ?
Hsc70 ATP site: 0.7%; MT1-MMP promoter: inactive

Results for COc1ccc(CC(=O)Nc2cccc(-c3nnc(-c4ccco4)o3)c2)cc1 ?
Hsc70 ATP site: 0.5%; WNV NS2B-NS3 inh: -0.13; MT1-MMP promoter: inactive

Results for FC(F)(F)c1cc(-c2ccccc2)nc(NCC2CCCO2)n1 (stereo not given) ?
Hsc70 ATP site: -4.8%; WNV NS2B-NS3 inh: -0.52; MT1-MMP promoter: inactive

What do the screens show for `CCn1c(SCC(=O)OC)nnc1-c1ccncc1`?
Hsc70 ATP site: -6.3%; MT1-MMP promoter: inactive

How did Cc1nn(-c2ccccc2)c2c1C(=O)NC(=O)C(C)(C)C2 do in these assays?
Hsc70 ATP site: 3.0%; WNV NS2B-NS3 inh: 0.33; MT1-MMP promoter: inactive

How did CCn1c(=O)cc(SCC(=O)Nc2cccnc2)c2ccccc21 do in these assays?
Hsc70 ATP site: 2.8%; WNV NS2B-NS3 inh: -0.96; MT1-MMP promoter: inactive

Results for OC1CCN(c2c3c(nc4cc(-c5cccc(F)c5)nn24)CCCC3)CC1 ?
Hsc70 ATP site: 3.3%; WNV NS2B-NS3 inh: -0.62; MT1-MMP promoter: inactive

Taken from the listing, four compounds:
Results for Cc1ccc2cc(C(c3nnnn3C3CCCC3)N3CCN(c4ccccc4)CC3)c(=O)[nH]c2c1 (stereo not given) ?
Hsc70 ATP site: 1.2%; WNV NS2B-NS3 inh: -0.54; MT1-MMP promoter: inactive

What do the screens show for `COc1ccc(/C=C(/C#N)c2cccnc2)cc1OC`?
Hsc70 ATP site: 4.9%; WNV NS2B-NS3 inh: -2.3; MT1-MMP promoter: inactive

Results for Cc1ccc(C(=O)OCC(=O)Nc2ncc(Cl)cc2Cl)cc1NC(=O)c1ccco1 ?
Hsc70 ATP site: 0.5%; MT1-MMP promoter: inactive

Results for C=CCNC(=O)C1CCN(S(=O)(=O)c2ccc(Br)cc2)CC1 ?
Hsc70 ATP site: 4.1%; WNV NS2B-NS3 inh: 1.8; MT1-MMP promoter: inactive

Additional structures follow.
What do the screens show for `Cc1ccc(-n2nc3cc(C)c(NC(=O)c4cccnc4)cc3n2)cc1`?
Hsc70 ATP site: -1.6%; MT1-MMP promoter: inactive

Results for CC(=O)c1cc(C#N)c(SCC(=O)OC(C)(C)C)nc1C ?
Hsc70 ATP site: -15%; WNV NS2B-NS3 inh: 2.2; MT1-MMP promoter: inactive

How did O=C(c1cccc(OC(F)F)c1)N1CCN(c2ncccn2)CC1 do in these assays?
Hsc70 ATP site: 0.2%; WNV NS2B-NS3 inh: -0.35; MT1-MMP promoter: inactive

What do the screens show for `Cc1csc(=Nc2ccc(S(=O)(=O)N3CCOCC3)cc2)n1Cc1ccco1`?
Hsc70 ATP site: 0.1%; WNV NS2B-NS3 inh: -0.53; MT1-MMP promoter: inactive

What do the screens show for `COc1cc(C)nc(NS(=O)(=O)c2ccccc2)n1`?
Hsc70 ATP site: 0.1%; WNV NS2B-NS3 inh: -0.84; MT1-MMP promoter: inactive

Results for COCCCNC(=O)C1CCCN(C(=O)Nc2ccc(OC)cc2)C1 (stereo not given) ?
Hsc70 ATP site: -0.2%; WNV NS2B-NS3 inh: 0.2; MT1-MMP promoter: inactive

What do the screens show for `C=CCSc1nnc(Cc2c(C)[nH]c3ccccc23)o1`?
Hsc70 ATP site: -1.8%; WNV NS2B-NS3 inh: -0.77; MT1-MMP promoter: inactive

What do the screens show for `CC(C)C(C(=O)Nc1cccnc1)N1C(=O)c2ccccc2C1=O` (stereo not given)?
Hsc70 ATP site: -1.7%; WNV NS2B-NS3 inh: -1; MT1-MMP promoter: inactive

Results for COC(=O)c1[nH]c2cc(OC)c(OC)cc2c1NC(=O)CN1CCN(Cc2ccccc2)CC1 ?
Hsc70 ATP site: -1.3%; WNV NS2B-NS3 inh: -0.99; MT1-MMP promoter: inactive

What do the screens show for `CCN(CC)S(=O)(=O)c1csc(C(=O)NC2CCCCC2)c1`?
Hsc70 ATP site: 2.9%; WNV NS2B-NS3 inh: 0.32; MT1-MMP promoter: inactive

How did CCOc1ccc(S(=O)(=O)n2ccnc2)c2ccccc12 do in these assays?
Hsc70 ATP site: -0.4%; WNV NS2B-NS3 inh: 1.4; MT1-MMP promoter: inactive

How did Cc1cccc(NC(=O)CN(C)S(=O)(=O)c2ccc(Cl)cc2)n1 do in these assays?
Hsc70 ATP site: 5.8%; WNV NS2B-NS3 inh: 2.6; MT1-MMP promoter: inactive

What do the screens show for `CCOC(=O)c1cnc(-n2nc(C)cc2C)nc1Nc1ccc(N(C)C)cc1`?
Hsc70 ATP site: 2.1%; WNV NS2B-NS3 inh: 0.3; MT1-MMP promoter: inactive

How did CCOC(=O)c1ccc(NC(=O)NC2CCN(CC(=O)NCc3ccc4c(c3)OCO4)CC2)cc1 do in these assays?
Hsc70 ATP site: -4.2%; WNV NS2B-NS3 inh: -0.53; MT1-MMP promoter: inactive

How did CCCOc1ccc(C2C(C#N)=C(N)Oc3nc[nH]c(=O)c32)cc1OC (stereo not given) do in these assays?
Hsc70 ATP site: -1.0%; WNV NS2B-NS3 inh: -0.32; MT1-MMP promoter: inactive

Results for CCC(Oc1ccccc1)C(=O)NCc1cccnc1 (stereo not given) ?
Hsc70 ATP site: -2.2%; WNV NS2B-NS3 inh: 1.8; MT1-MMP promoter: inactive

Results for Cc1cccc(C2(c3cccc(C)c3)OC(=O)c3ccccc32)c1 ?
Hsc70 ATP site: -3.7%; MT1-MMP promoter: inactive

Results for O=C(O)CC(NC(=S)NCc1ccccc1)C(=O)O (stereo not given) ?
Hsc70 ATP site: 3.2%; MT1-MMP promoter: inactive

What do the screens show for `Cc1cccc(N(C(=O)c2cnc3n(c2=O)CCS3)C2CCCCC2)c1`?
Hsc70 ATP site: -3.0%; WNV NS2B-NS3 inh: -0.12; MT1-MMP promoter: inactive

How did Cc1ccc(C)c(OC(=O)c2ccncc2)c1 do in these assays?
Hsc70 ATP site: 0.1%; MT1-MMP promoter: inactive

How did O=C(Nc1ccc2c(c1)OCO2)N1CCN(c2cccc(C(F)(F)F)c2)CC1 do in these assays?
Hsc70 ATP site: 4.0%; WNV NS2B-NS3 inh: -0.55; MT1-MMP promoter: inactive

What do the screens show for `COc1ccccc1C1C=C(c2ccc(Cl)cc2)Nc2nc(NS(C)(=O)=O)nn21` (stereo not given)?
Hsc70 ATP site: 32%; WNV NS2B-NS3 inh: 0.5; MT1-MMP promoter: inactive

How did CCCCN1C(=O)N(C)C2C1N(C)C(=O)N2CCCC (stereo not given) do in these assays?
Hsc70 ATP site: -0.2%; MT1-MMP promoter: inactive

How did COc1ccc(CCNC2CC(=O)N(CCc3ccccc3)C2=O)cc1OC (stereo not given) do in these assays?
Hsc70 ATP site: 1.6%; WNV NS2B-NS3 inh: -1.9; MT1-MMP promoter: inactive

What do the screens show for `C[C@@H](NC(=O)c1coc(=O)c(Br)c1)c1ccccc1`?
Hsc70 ATP site: -0.9%; WNV NS2B-NS3 inh: -0.24; MT1-MMP promoter: inactive

How did CCn1cc(C(=O)NC2CCCC2)c(=O)c2cc(S(=O)(=O)N3CCOCC3)ccc21 do in these assays?
Hsc70 ATP site: 0.0%; WNV NS2B-NS3 inh: -0.25; MT1-MMP promoter: inactive

What do the screens show for `CCCCOc1[nH]c2nc(-c3ccco3)n(Cc3ccco3)c(=N)c2c1C#N`?
Hsc70 ATP site: -4.6%; WNV NS2B-NS3 inh: -0.53; MT1-MMP promoter: inactive

How did C(#CCN1CCOCC1)COCCCOC(c1ccccc1)c1ccccc1 do in these assays?
Hsc70 ATP site: 1.2%; MT1-MMP promoter: inactive

How did CC(C)C(=O)Nc1cccc(NC(=O)CCN2C(=O)c3ccccc3S2(=O)=O)c1 do in these assays?
Hsc70 ATP site: -0.1%; WNV NS2B-NS3 inh: 0.35; MT1-MMP promoter: inactive

Results for Cc1c(CN(C)C(=O)c2ccc(Br)o2)cnn1C ?
Hsc70 ATP site: -4.2%; MT1-MMP promoter: inactive

How did CC(O)c1nc2ccccc2n1C1CCCCC1 (stereo not given) do in these assays?
Hsc70 ATP site: -0.9%; WNV NS2B-NS3 inh: 1.7; MT1-MMP promoter: inactive

How did CCOC(=O)Cc1csc(NC(=O)CSc2nnnn2-c2ccc(CC)cc2)n1 do in these assays?
Hsc70 ATP site: -2.5%; WNV NS2B-NS3 inh: -0.62; MT1-MMP promoter: inactive

What do the screens show for `CCN1C(=O)CC(N2CCN(c3ccc(Cl)cc3)CC2)C1=O` (stereo not given)?
Hsc70 ATP site: -3.2%; WNV NS2B-NS3 inh: -0.46; MT1-MMP promoter: inactive

Results for O=C(c1ccc2c(c1)OCCO2)N1CCN(Cc2ccccc2)CC1 ?
Hsc70 ATP site: 1.1%; MT1-MMP promoter: inactive

Results for Cc1cc2c(cc1C)/C(=C\C(N)=O)NC(C)(C)C2 ?
Hsc70 ATP site: -3.1%; WNV NS2B-NS3 inh: 0.51; MT1-MMP promoter: inactive

How did CC(OC(=O)c1cc2sccc2n1C)C(=O)NCc1ccc(F)cc1 (stereo not given) do in these assays?
Hsc70 ATP site: 3.5%; MT1-MMP promoter: inactive

Results for CCOCC(=O)Nc1nnc(Cc2ccc(OC)cc2)s1 ?
Hsc70 ATP site: 2.3%; MT1-MMP promoter: inactive

Results for COc1ccc2nc(Nc3nc(CSc4nnnn4-c4ccccc4)cc(=O)[nH]3)nc(C)c2c1 ?
Hsc70 ATP site: -7.0%; MT1-MMP promoter: inactive

What do the screens show for `O=C(NCc1ccccc1)C1COc2ccccc2O1` (stereo not given)?
Hsc70 ATP site: 1.3%; MT1-MMP promoter: inactive

What do the screens show for `COC(=O)C1=C(C)N(C)C(=O)NC1c1cc(Cl)c(O)c(OC)c1` (stereo not given)?
Hsc70 ATP site: 2.6%; MT1-MMP promoter: inactive

What do the screens show for `CCN1CCN(c2oc(COc3ccc(-c4ccccc4)cc3)nc2C#N)CC1`?
Hsc70 ATP site: -2.5%; WNV NS2B-NS3 inh: 0.7; MT1-MMP promoter: inactive

What do the screens show for `CCOC(=O)C(Cc1c[nH]c2ccccc12)NC(=O)c1ccco1` (stereo not given)?
Hsc70 ATP site: -1.0%; WNV NS2B-NS3 inh: -0.45; MT1-MMP promoter: inactive

What do the screens show for `O=C(CN(C(=O)CCC(=O)Nc1nccs1)c1ccc(F)cc1)NCC1CCCO1` (stereo not given)?
Hsc70 ATP site: 3.2%; WNV NS2B-NS3 inh: -0.64; MT1-MMP promoter: inactive

How did COCN(C#N)c1nc(OC)nc(OC)n1 do in these assays?
Hsc70 ATP site: 87%; WNV NS2B-NS3 inh: -1.2; MT1-MMP promoter: inactive

How did CCCCC(CC)C(=O)Nc1ccc(Cl)cn1 (stereo not given) do in these assays?
Hsc70 ATP site: 1.9%; WNV NS2B-NS3 inh: 0.57; MT1-MMP promoter: inactive

How did O=C(Nc1ccccn1)c1cccc(S(=O)(=O)N2CCOCC2)c1 do in these assays?
Hsc70 ATP site: 2.0%; WNV NS2B-NS3 inh: -1.1; MT1-MMP promoter: inactive

What do the screens show for `CCOC(=O)c1oc2c(O)c(O)ccc2c(=O)c1-c1nncn1-c1ccccc1`?
Hsc70 ATP site: 11%; WNV NS2B-NS3 inh: 1.2; MT1-MMP promoter: inactive

Screens as filed in PubChem BioAssay.
